Screens: PubChem, National Center for Advancing Translational Sciences (NCATS)
SARS PLP yeast: qHTS of Yeast-based Assay for SARS-CoV PLP. S. cerevisiae expressing SARS-CoV PLpro, growth rescue; control for the full effect not named in the record. Potency, µM (titrated, usually from 32.9 µM), without a hit: top-dose activity, positive = growth rescue. hit rate 0.19% among 330,000; active means well fitted rising curve with a large enough effect; inconclusive means small, poorly fitted or top-dose-only effect; inactive means no such curve, though single readings can be large or run the other way; further: 0% is about no effect; nearly all actives have a fitted effect of over 55% in size; growth read by luminescence after 48 h
RE007 growth inh: qHTS Assay for Inhibitors of the HIV-1 protein Vpr; hit rate 0.21% among 360,000; Potency, µM (titrated, usually from 92.2 µM), inactives show top-dose activity change, negative = less growth; S. pombe RE007 Vpr strain, BacTiter-Glo ATP luminescence, 24 h; control for the full effect not named in the record; active = well fitted falling curve with a large enough effect; inconclusive = small, poorly fitted or top-dose-only effect; inactive = no such curve, though single readings can be large or run the other way;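 further: on the % scale 0 is the no-effect control and ±100 the full control effect; nearly all actives have a fitted effect of over 50% in size; the assay follows cell death caused by Vpr and the record does not say whether a fall means rescue or toxicity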
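Fission yeast RE007 carrying one integrated HIV-1 vpr copy, seeded at OD 0.01 in PMG+AL medium with 23 nL pinned compound. Grown 24 h at 30 degrees; viability read by BacTiter-Glo luminescence after 5 min.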
2A StopGo: High Throughput Screening for Foot and Mouth Disease Virus Antivirals; human cells with a luciferase reporter of 2A StopGo recoding; control for the full effect not named in the record; Potency, µM (series often up to 57.9 µM), for inactives: at the top dose signal change, negative = less light; hit rate 1.2% among 410,000; active = well fitted falling curve with a large enough effect; inconclusive = small, poorly fitted or top-dose-only effect; inactive = no such curve, though single readings can be large or run the other way; tested in HEK293T cells; further: on the % scale 0 is the no-effect control and ±100 the full control effect; nearly all actives have a fitted effect of over 45% in size; luciferase light after 4 h
* marks the source's active call; other numbers are inactive results; ? = inconclusive; [ ] = dose if it differs, or a comment. Potency means the concentration at half of the fitted maximal effect.

Start of the data: the first 6 records (preview)
SMILES	SARS PLP yeast	RE007 growth inh	2A StopGo
COC(=O)[C@]1(C)N[C@H](CN(C)C(=O)c2ccc(C)cc2)[C@@H]2C(=O)N(C)C(=O)[C@@H]21	-3%	4%	-15%
O=C(NC(=S)Nc1ccc(Br)cn1)c1cccs1	1%	0%	47%[activator]
NC(=O)c1nc[nH]c1C(=O)Nc1cccc(NC(=O)c2cccc(C(F)(F)F)c2)c1	-6%	-7%	-24%
CC(=O)Nc1ccc(S(=O)(=O)N(CCCN2CCOCC2)Cc2cccs2)cc1	-4%	0%	-20%
COC(=O)C1=C(c2c(C)noc2C)C[C@@H]2CC[C@H]1N2C(=O)NC(C)C	-5%	0%	8%
CC(C)(C)OC(=O)N1CCC(NC(=O)c2nc[nH]c2C(=O)N2CCN(C(=O)OC(C)(C)C)CC2)CC1	-9%	-12%	-18%

Results, repeating the preview:
SMILES	SARS PLP yeast	RE007 growth inh	2A StopGo
COC(=O)[C@]1(C)N[C@H](CN(C)C(=O)c2ccc(C)cc2)[C@@H]2C(=O)N(C)C(=O)[C@@H]21	-3%	4%	-15%
O=C(NC(=S)Nc1ccc(Br)cn1)c1cccs1	1%	0%	47%[activator]
NC(=O)c1nc[nH]c1C(=O)Nc1cccc(NC(=O)c2cccc(C(F)(F)F)c2)c1	-6%	-7%	-24%
CC(=O)Nc1ccc(S(=O)(=O)N(CCCN2CCOCC2)Cc2cccs2)cc1	-4%	0%	-20%
COC(=O)C1=C(c2c(C)noc2C)C[C@@H]2CC[C@H]1N2C(=O)NC(C)C	-5%	0%	8%
CC(C)(C)OC(=O)N1CCC(NC(=O)c2nc[nH]c2C(=O)N2CCN(C(=O)OC(C)(C)C)CC2)CC1	-9%	-12%	-18%
CNc1ccc(C(=O)OCC(=O)Nc2ccnn2C(C)C)cc1[N+](=O)[O-]	2%	4%	-17%
CC(C)Cn1c(N)c(C(=O)COC(=O)c2ccc(O)cc2)c(=O)n(C)c1=O	0%	11%	-29%
CC1(c2nnc(Cc3ccccc3)o2)CC(c2ccccc2[N+](=O)[O-])=NO1 (stereo not drawn)	0%	19%	13%
C[C@@H]1NC(=O)[C@@]2(C)[C@@H](c3ccccc3)[C@H]3COc4ccccc4[C@@H]3N2C1=O	-2%	-3%	-9%
COc1ccc(NC(=O)CN(C)C(=O)c2n[nH]c3ccccc23)cc1	3%	7%	50%[activator]
CCOc1ncccc1C(=O)Nc1ccc(C)c(S(=O)(=O)N2CCCCCC2)c1	-4%	8%	-14%
CCOc1cc(N2CCOCC2)c(OCC)cc1NC(=O)C1CC(=O)N(c2ccc(C)cc2)C1 (stereo not drawn)	-3%	5%	-8%
O=C(CSc1nc2[nH]ncc2c(=O)n1-c1ccccc1)NCc1cccs1	3%	-9%	2%
O=C(O)C1C2C=CC(C2)C1C(=O)NCc1ccccc1 (stereo not drawn)	-2%	4%	-14%
CN(Cc1ccccc1)C(=O)c1[nH]cnc1C(=O)Nc1ccc(Cl)cc1	0%	-4%	0%
CCS(=O)(=O)c1ccc(O)c(NC(=O)c2cc(-c3ccccn3)nc3ccccc23)c1	-1%	11%	-14%
COc1cc(CC(=O)Nc2cccc(S(=O)(=O)N(C)c3ccccc3)c2)cc(OC)c1OC	-9%	2%	22µM*
CC1CCN(S(=O)(=O)c2ccc(NC(=O)CCN3C(=O)C4CC=CCC4C3=O)cc2)CC1 (stereo not drawn)	2%	3%	-25%
CC(C)(C)OC(=O)C[C@H]1C/C=C\C[C@@H](CC(=O)N(CCO)Cc2ccccc2)C(=O)N[C@@H](c2ccccc2)COC1=O	-3%	0%	-5%
CCc1ccc(C(=O)NNC(=O)Cn2c(=O)cnc3ccccc32)cc1	-1%	-6%	-10%
CCS(=O)(=O)NC(C)C(c1cccs1)N1CCN(c2ccc(OC)cc2)CC1 (stereo not drawn)	0%	-1%	-26%
COc1cc([C@H]2c3c(cc(OC)c(O)c3OC)C[C@@H](CO)[C@@H]2CO[C@@H]2O[C@H](CO)[C@@H](O)[C@H](O)[C@H]2O)cc(OC)c1O	-7%	-8%	-10%
O=C(CNc1ccccc1Cl)Nc1cc(S(=O)(=O)N2CCOCC2)ccc1Cl	2%	5%	-15%
O=C(CCNC(=O)c1ccco1)NC(Cc1c[nH]c2ccccc12)C(=O)O (stereo not drawn)	-3%	-4%	-2%
The list goes on.
SMILES	SARS PLP yeast	RE007 growth inh	2A StopGo
N#Cc1ccc(OCC(=O)NC(=O)NC2CCS(=O)(=O)C2)cc1 (stereo not drawn)	5%	5%	-9%
COC(=O)C1=C(c2cc3ccccc3o2)C[C@@H]2CC[C@H]1N2C	1%	17%	1%
CN(C1CCCCC1)S(=O)(=O)c1cn(C)c(=O)n(C)c1=O	-3%	-16%	-23%
COCCn1c(SCC(=O)c2c(N)n(C3CC3)c(=O)[nH]c2=O)nnc1-c1ccc(Cl)cc1	-11%	9%	-10%
CCCCOc1ccc(C(=O)OCC(=O)c2c(N)n(C)c(=O)n(C)c2=O)cc1	-6%	9%	-19%
CC[C@]12c3[nH]c4ccccc4c3CCN1C(=O)C(CC(=O)NCCCOC)C[C@@H]2C(=O)N1CCN(C(=O)c2ccco2)CC1 (stereo partly drawn)	-1%	-9%	-17%
CCc1ccc(Nc2n[n+](-c3ccccc3)c(-c3cccc(C)c3)s2)cc1	3%	-3%	-3%
C[C@H](CO)N1C[C@H](C)[C@@H](CN(C)S(=O)(=O)c2ccc(F)cc2)Oc2ccc(NC(=O)Nc3ccccc3)cc2C1=O	-4%	-1%	0%
Fc1cc(F)cc(NC(=S)N2CCC(c3ccccc3)C2)c1 (stereo not drawn)	4%	10%	26%
CC[C@]12c3[nH]c4ccc(Cl)cc4c3CCN1C(=O)[C@@H](CC(=O)NCCCOC)C[C@@H]2C(=O)N1CCN(C(=O)C2CC2)CC1	13%	-17%	-23%
CC(C)(C)[C@H]1COC(=O)[C@H](NC(=O)OCC2c3ccccc3-c3ccccc32)C/C=C\C[C@@H](CC(=O)N[C@@H](CO)Cc2ccccc2)C(=O)N1	-13%	-5%	-17%
Cc1nnc(SCC2=C(C(=O)O)N3C(=O)C(NC(=O)c4cc(F)c(F)cc4Cl)C3SC2)s1 (stereo not drawn)	2%	-3%	-13%
Cn1c(CC(=O)NNC(=O)c2ccc(F)cc2Cl)nc2ccccc21	6%	-2%	5%
CC(CNC(=O)Cn1ccc(NC(=O)OCc2ccccc2)nc1=O)c1ccccc1 (stereo not drawn)	2%	-1%	-20%
C[C@H](CO)N1C[C@H](C)[C@H](CN(C)C(=O)Nc2ccc(F)cc2)Oc2ccc(NC(=O)NC3CCCCC3)cc2CC1=O	-6%	-11%	24%
COc1ccc(CN(C)CC(=O)Nc2cccc(S(=O)(=O)N3CCCC3)c2)cc1F	1%	1%	7%
COc1ccc(C(=O)CC(CC(=O)c2ccc(OC)cc2)C(=O)O)cc1	-5%	-15%	-13%
C[C@]12c3[nH]c4ccccc4c3CCN1C(=O)C(CC(=O)NCCC1=CCCCC1)C[C@@H]2C(=O)N1CCCCC1 (stereo partly drawn)	-4%	9%	-7%
Cc1ccc(S(=O)(=O)N2[C@@H](c3ccc(Cl)cc3)C(C(=O)O)=CC[C@H]2c2ccc3c(c2)OCO3)cc1	0%	5%	-6%
COc1ccc(C2CC(c3ccncc3)=NN2c2ccc(S(N)(=O)=O)cc2)cc1 (stereo not drawn)	14%	-21%	3%
Cc1ccc(OCCC(=O)Nc2ccc3c(c2)OCO3)cc1	-4%	-7%	5%
CCOc1ncccc1C(=O)OCC(=O)N1c2ccccc2CC1C (stereo not drawn)	2%	2%	-19%
Nc1ncnc2c1ncn2[C@@H]1O[C@H](CNCc2ccc(OCC(=O)Nc3nccs3)cc2)[C@@H](O)[C@H]1O	7%	-20%	-16%
COc1ccc2c3n(nc2c1)CCN=C3c1ccc(C)cc1	0%	-4%	9%
CCc1ccccc1N(C(C)=O)c1nc(CN=C=S)cs1	2%	-10%	-29%

In the list so far, these contain a nitro group on carbon:
SMILES	SARS PLP yeast	RE007 growth inh	2A StopGo
CNc1ccc(C(=O)OCC(=O)Nc2ccnn2C(C)C)cc1[N+](=O)[O-]	2%	4%	-17%
CC1(c2nnc(Cc3ccccc3)o2)CC(c2ccccc2[N+](=O)[O-])=NO1 (stereo not drawn)	0%	19%	13%

Not a retest: entries from further up.
SMILES	SARS PLP yeast	RE007 growth inh	2A StopGo
COc1ccc2c3n(nc2c1)CCN=C3c1ccc(C)cc1	0%	-4%	9%
CCc1ccccc1N(C(C)=O)c1nc(CN=C=S)cs1	2%	-10%	-29%

Other records follow.
SMILES	SARS PLP yeast	RE007 growth inh	2A StopGo
C[C@H]1COC(=O)[C@@H](Cc2ccc(F)cc2)CC/C=C\C[C@H](CC(=O)NCCO)C(=O)N1	10%	2%	-8%
CCOC(=O)C1=C(C)N(C[C@@H]2CC[C@@H](Cc3ccc(-c4ccccc4)cc3)O2)C(=O)NC1c1cccc([N+](=O)[O-])c1 (stereo partly drawn)	3%	-1%	-26%
Cc1nn(CC(=O)OCC(=O)c2ccc(OC(F)F)cc2)c(C)c1[N+](=O)[O-]	-1%	-6%	-5%
N#Cc1ccc(C(=O)Nc2cc(-c3ccc(F)cc3)nn2-c2ccccc2)cc1	-3%	-18%	-19%
C[C@@H]1CN([C@@H](C)CO)C(=O)c2cccc(NS(=O)(=O)c3cccs3)c2O[C@H]1CN(C)Cc1ccc(C(F)(F)F)cc1	6%	14%	48%[activator]
CC(C)(C)NC(=O)C(c1ccc(-c2ccccc2)cc1)N(C[C@H]1CC[C@@H]([C@@H]2CC[C@H](CO)O2)O1)C(=O)c1ccc(-c2ccccc2)cc1 (stereo partly drawn)	5%	7%	?
CCOc1cc(N2CCOCC2)c(OCC)cc1NC(=O)CN1C(=O)NC(C)(C2CC2)C1=O (stereo not drawn)	-4%	2%	-16%
CC(=O)c1ccc(NC(=O)c2noc3c2CCC3)cc1	1%	-18%	?
COc1ccc(C)cc1NC(=O)CCS(=O)(=O)c1ccc2c(c1)CCN2C(C)=O	-2%	1%	-17%
O=C(O)C1=CC[C@@H](c2ccc(Cl)cc2)N(S(=O)(=O)c2ccc(Cl)cc2)[C@H]1c1ccc(F)cc1	-2%	3%	0%
Cc1ccc(NC2c3ncccc3C(=O)N2Cc2ccco2)c(C)c1 (stereo not drawn)	0%	1%	-8%
CN(C)c1ccc(S(=O)(=O)N2CCC(Cc3ccccc3)CC2)cn1	-1%	4%	-29%
Cn1nc(C(=O)Nc2cccc(C(=O)NC3CC3)c2)c2ccccc2c1=O	0%	-10%	14%
COc1ccccc1/C=C/C(=O)OCC(=O)c1cc(C)n(C)c1C	6%	-18%	12%
CCOc1ccc(S(=O)(=O)NCC(=O)NC2CCCCC2)cc1	1%	3%	4%

Complete entries as entered above. Order of values: SARS PLP yeast	RE007 growth inh	2A StopGo
CC(=O)Nc1ccc(S(=O)(=O)N(CCCN2CCOCC2)Cc2cccs2)cc1 across the screens: -4%	0%	-20%
Cn1c(CC(=O)NNC(=O)c2ccc(F)cc2Cl)nc2ccccc21 across the screens: 6%	-2%	5%

An excerpt, so the mix of outcomes need not match the whole.
